High-throughput results: PubChem BioAssay, Broad Institute
Tgondii IFNg = T. gondii growth inhibition with IFN-gamma, primary screen, cell-based; AID 1259416, 2018; activity change, negative = inhibition, %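 (about 20 µM by stock and volumes)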; Toxoplasma gondii growth in IFN-gamma-treated host cells; active compounds read low; reference of the scale not given here; 69,000 compounds, 3.8% hits;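 active = below -70%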;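 also: host cells are HeLa cells infected with Toxoplasma gondii; parasite growth read as luciferase light; one replicate is shown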
Starred values were filed as active, the others as inactive; i = inactive; & = joins results of further samples. Only part of the results is shown. The share of hits here may be higher or lower than overall.

Compound | Tgondii IFNg
CCOC(=O)c1coc(N2CCCC3(C2)C(=O)N(C)c2ccccc23)n1 (stereo unspecified) | -32
C=CCN1CCC2(CC1)CC(NC(=O)[C@H]1CCCO1)c1ccccc1O2 (stereo partly specified) | 1
CCCc1[nH]ncc1C(=O)N1CCCC(c2[nH]ncc2-c2ccc(F)cc2)C1 (stereo unspecified) | -8
COc1ccc(/C=C/CN2CCCC(OCc3ccccn3)C2)cc1 (stereo unspecified) | 5
CNC1CCC2(CC1)CN(S(=O)(=O)c1cn(C)cn1)Cc1ccccc1O2 (stereo unspecified) | 17
CC(C)c1nc(CNC(=O)c2ccc(CC3CCCNC3)cc2)cs1 (stereo unspecified) | 3
CCc1cnc(N2[C@H](C#N)[C@@H](c3ccc(C4=CCCCC4)cc3)[C@@H]2CO)s1 | -30
Cc1nc2ccc(NC(=O)c3cccc4c3C(=O)N(CC3CCCO3)C4)cc2s1 (stereo unspecified) | -44
CC(=O)NC1C(=O)N(CCc2ccccc2)c2c(C)ccc(C)c21 (stereo unspecified) | -5
Cc1ccc(C(=O)NC(=S)NCCCN2CCOCC2)cc1 | -2
Cc1nc(-c2ccc(F)cc2)sc1CCNC(=O)c1ccc(C(F)(F)F)cc1 | -41
O=C(CCN1CCCCC1)N[C@@H]1CC[C@@H](CCn2cc(-c3cccc(F)c3)nn2)O[C@H]1CO | -11
O=C(C[C@@H]1CC[C@H](NS(=O)(=O)c2ccccc2F)[C@H](CO)O1)NCCCN1CCOCC1 | 37
COC(=O)c1cc2n(n1)CCCN(C(=O)COc1ncnc3ccccc13)C2 | 3
COCc1nc2c([nH]1)c(=O)n(C)c(=O)n2CC(C)C | 7&17
CC1c2ncc(COc3cccnc3)n2CCN1S(=O)(=O)N(C)C (stereo unspecified) | -3
Cc1ccc(-c2ccccc2[C@@H]2[C@H](C#N)N(S(C)(=O)=O)[C@H]2CO)cc1 | -46
COc1ccc(-c2nc(C)c(CCNC(=O)C(=O)Nc3ccccc3F)s2)cc1 | 24
CCN1c2ccccc2C(=O)NC12CCN(C(=O)NCc1ccccc1)CC2 | 22
O=C(NCCC1=CCCCC1)c1nc(Nc2ccc(F)cc2)c2ccccc2n1 | -32
O=C(Cn1c(=O)c(S(=O)(=O)c2ccccc2)cc2ccccc21)NC1CCCC1 | 14
CC1(C(=O)NCc2ccc(F)cc2F)CCN(C(=O)c2ccc(F)cc2)CC1 | 14
Fc1ccc(CN2CCc3nc(N4CCOCC4)nc(NC4CC4)c3C2)cc1 | 14
CC(C)(C)c1csc(SCC(=O)Nc2ccccc2)n1 | -26
CCc1ccc(S(=O)(=O)N2CCC3(CC2)NCCN=C3NCc2ccccc2)cc1 | -14
CCOc1ccc2nc(SCC(=O)O)nc(C)c2c1 | 20
CN1[C@H]2CC[C@@H]1CN(C(=O)C1(C)CCCCC1)CC2 | -4
Cc1nnc(Nc2cccc(C3CCN(S(=O)(=O)c4ccc(F)cc4)CC3)n2)s1 | -6
CN(C)C1COC2(CCN(S(=O)(=O)C3CC3)CC2)C1 (stereo unspecified) | -28
COc1ccc(CC(=O)n2[nH]c(=O)c3ccccc3c2=O)cc1OC | 34
Cc1ccc(Nc2nc(C(=O)NC3CCCCCC3)nc3ccccc23)cc1 | -75*
CN(C)CCCN(Cc1ccco1)Cc1n[nH]nc1-c1ccccc1 | 2
Cc1cnccc1CN1CC(C(=O)O)CC1=O (stereo unspecified) | -3
COc1cc(NC(=O)Cn2c(=O)cc(C(=O)N3CCCCC3)c3ccccc32)cc(OC)c1 | 9
CCN(C(C)=O)C1CCN(c2ncnc3sc4c(c23)CCNC4)C1 (stereo unspecified) | -6
CC(C)(NC(=O)c1cccs1)C(=O)NCCSc1cn[nH]n1 | 9
CCCCn1ncc(C)c1NC(=O)Cc1ccc2c(c1)OCO2 | -4
CN1c2ccc(-c3cccc(C#N)c3)cc2[C@H]2[C@H](CCN2C(=O)CN2CCOCC2)[C@H]1CO | 8
O=C(C1CC(=O)N(c2ccc(F)cc2)C1)N1CCC(n2c(=O)oc3ccccc32)CC1 (stereo unspecified) | -2
O=C(C[C@@H]1CC[C@H]2[C@@H](COC[C@@H](O)CN2C(=O)c2cnccn2)O1)N1CCN(c2ccccc2)CC1 | 19
COc1cc(N2CCc3ccc(=O)[nH]c3CC2)ncn1 | 5
Cc1cccc(C)c1NC(=O)C[N+](C)(C)C | 14&2
Cc1nccc(-c2cccc(-n3ccnc3-c3ccccc3OCCO)c2)n1 | 95
Cc1ccccc1-c1ccc([C@@H]2[C@H]3CN(C(=O)c4ccncc4)CC(=O)N3[C@H]2CO)cc1 | -26
CCC(=O)Nc1ccc2c(c1)C(=O)N(C)C[C@H](OC)[C@H](C)CN(Cc1nccs1)[C@H](C)CO2 | 9
COCCN(C)C(=O)c1nc2c(s1)CCCN2c1ccccc1 | -6
CCCCn1nc(C)c2c1NC(=O)CC2c1c(C)n(C)n(-c2ccccc2)c1=O (stereo unspecified) | -43
O=[N+]([O-])c1ccccc1S(=O)(=O)NCC1CCC(CNCC2CCc3ccccc3C2)CC1 (stereo unspecified) | -8&-34
Clc1ccc(-c2nc(NC3CCCC3)c3ccccc3n2)cc1 | 55
Cc1ccc(NC(=O)Cn2ncc3c(N4CCC(C)CC4)ncnc32)cc1Cl | 0

As entered above.
CN1c2ccc(-c3cccc(C#N)c3)cc2[C@H]2[C@H](CCN2C(=O)CN2CCOCC2)[C@H]1CO | Tgondii IFNg = 8
CC(C)(NC(=O)c1cccs1)C(=O)NCCSc1cn[nH]n1 | Tgondii IFNg = 9
CCN(C(C)=O)C1CCN(c2ncnc3sc4c(c23)CCNC4)C1 (stereo unspecified) | Tgondii IFNg = -6
Cc1ccc(NC(=O)Cn2ncc3c(N4CCC(C)CC4)ncnc32)cc1Cl | Tgondii IFNg = 0

Molecules from the list above containing an aryl thioether with sulfur outside any ring:
Compound | Tgondii IFNg
CC(C)(C)c1csc(SCC(=O)Nc2ccccc2)n1 | -26
CCOc1ccc2nc(SCC(=O)O)nc(C)c2c1 | 20
CC(C)(NC(=O)c1cccs1)C(=O)NCCSc1cn[nH]n1 | 9

The listing continues:
Compound | Tgondii IFNg
NS(=O)(=O)c1ccc(N=Cc2c(O)[nH]c3ccccc23)cc1 | -24
CN1CC2(CCN(C(=O)c3[nH]cnc3-c3ccccc3)C2)OC1=O (stereo unspecified) | -29
CN1CCN(c2ncnc3c2c(C(=O)N(C)C)c2ccccn23)CC1 | -6
COc1cccc(NC(=O)N2CC3(C2)[C@@H](c2ccccc2)[C@@H](CO)N3C(C)=O)c1 | -11
CCCc1nc(N2Cc3cnn(CCO)c3C2)c2cnn(C)c2n1 | -13
CC(C)N(C)Cc1ncn2c1CN(C(=O)c1ccno1)CCC2 | 2
Cn1nc(CN2CCCC2=O)c2c1CN(CC1CCOC1)C2 (stereo unspecified) | -35
CC(C)NC(=O)CC1[C@H]2CN(Cc3ccc(F)cc3)C[C@@H]12 (stereo partly specified) | 26
Cc1oc(-c2ccc(C(=O)N3CCC(C)CC3)cc2)nc1CN1CCc2ccccc21 | 94
Cc1nc(-c2ccc(NS(=O)(=O)c3ccc(OC(F)(F)F)cc3)cc2)cs1 | 13
O=C1NCCN(Cc2ccc(F)cc2)C1CC(=O)N1CCC(OCc2ccccc2)CC1 (stereo unspecified) | -7
COc1ccc(-c2nc(C)c(CCNS(=O)(=O)c3ccc(Cl)cc3)s2)cc1OC | i
COc1cc(C(=O)N2CCC3(CC2)Nc2cc(F)ccc2-n2cccc23)cc(OC)c1OC | 61
CN(C)S(=O)(=O)N1CCN(CC(=O)Nc2cc(Cl)ccc2Cl)CC1 | 1
O=C(O)c1[nH]nc2c1COc1ccccc1-2 | 78
CNC(=O)c1sc2ccccc2c1CC1CCCN1C(=O)COc1ccccc1OC (stereo unspecified) | 14
Cc1nc(C)c(C(=O)N2Cc3cnc(CC(C)C)nc3C2)s1 | -3
CCOc1ccccc1-c1nc(Cn2nnc(C(=O)Nc3ccccc3OC)c2C)c(C)o1 | -19
Cc1cc(Cc2ccc(C(F)(F)F)cc2)cc(C2CCN(C(=O)Cc3ccccn3)C2)n1 (stereo unspecified) | -4
O=c1ccc2cc(S(=O)(=O)Nc3cccc(F)c3)ccc2[nH]1 | i
CC(C)N1CCc2c(nc(C3CCCCN3C(=O)c3cc4c(s3)CCCC4)[nH]c2=O)C1 (stereo unspecified) | 1
Cc1ccc(NC(=O)Cn2ncc3c(N4CCN(c5ccccn5)CC4)ncnc32)cc1C | -55
OC1(c2cccnc2)CCN(c2ncc(-c3cccs3)c(-c3cccnc3)n2)CC1 | 70
CCSC(=N)N | 8&11
CCN1CC2(CCOCC2)c2cc(NC(=O)c3ccsc3)ccc21 | 158

3 entries from above, reformatted.
> CCCc1nc(N2Cc3cnn(CCO)c3C2)c2cnn(C)c2n1
  Tgondii IFNg: -13
> CC(C)N(C)Cc1ncn2c1CN(C(=O)c1ccno1)CCC2
  Tgondii IFNg: 2
> Cn1nc(CN2CCCC2=O)c2c1CN(CC1CCOC1)C2 (stereo unspecified)
  Tgondii IFNg: -35

Next entries:
Compound | Tgondii IFNg
Cn1nccc1C(=O)N1CCC2(CCC(=O)N2)CC1 | 22
COc1cc(Cl)c(C)cc1NC(=O)c1nc(Nc2ccccc2)c2ccccc2n1 | 11
Cc1cccc2ncc(C(=O)N3CCC4(CCNC(=O)CC4)CC3)c(=O)n12 | 3
CN(Cc1cc(-c2ccccc2)no1)Cc1cccnc1N | 28
COc1ccccc1C(C)N(C)C(=O)c1ncc[nH]1 (stereo unspecified) | 0
O=C(c1ccccn1)N1CC2(C1)[C@@H](c1ccccc1)[C@@H](CO)N2Cc1ccc(F)cc1 | 5
CCOc1ccccc1C(=O)N1CCN(S(=O)(=O)c2cc3c4c(c2)CCN4C(=O)CC3)CC1 | 31
COCC(=O)N1[C@H](CO)[C@H](c2ccc(-c3ccccc3OC)cc2)C12CN(C(C)=O)C2 | -30
Cc1ccc(C)c(OC(C)C(=O)N(C)Cc2noc(C3CC3)n2)c1 (stereo unspecified) | -42
Cc1c(C)n(C(=O)CN2CCN(C(=O)c3ccco3)CC2)c2ccccc12 | 21
CCCNC(=O)c1cc2c(c(-c3cccc(-c4cc5ccccc5o4)c3)n1)[C@@H](CCO)N(C(=O)NC(C)C)C2 | -58
C[C@H]1CN([C@@H](C)CO)C(=O)c2c(c3ccccc3n2C)-c2ccccc2CO[C@H]1CN(C)C(=O)NC1CCCCC1 | -63
Cc1noc(C)c1S(=O)(=O)N(C)C[C@H]1OCc2cn(nn2)CCCC(=O)N([C@H](C)CO)C[C@@H]1C | -17
CCc1nc(C)cn1Cc1nc(-c2ccc3c(c2)OCO3)no1 | 4
Cc1c(S(=O)(=O)NCCc2ccccn2)sc2ccc(Cl)cc12 | 47
CC(=O)NC1(c2ccccc2F)CCN(Cc2cn[nH]c2-c2cccs2)CC1 | 72
Cc1ccc(CNC(=O)C2(C)CCC(=O)N2CCc2c[nH]c3ccccc23)cc1 (stereo unspecified) | 3
O=C(NC1CC1)c1cncc(NS(=O)(=O)c2ccc(F)cc2)c1 | 75
c1ccc(-c2ncn(CCc3cccs3)c2CCn2cccn2)cc1 | -3
COc1c(O)ccc2c1CN1CCc3cc4c(cc3C1C2)OCO4 (stereo unspecified) | -30
CC(C)n1nccc1NC(=O)CCn1ccnc1-c1ccccc1 | 3
O=C1NCCN(CC2CC2)C12CCN(Cc1ccco1)CC2 | 5
Fc1ccc(-c2csc(-c3cccs3)n2)cc1 | 114
O=C(NCc1ccco1)C1CCN(C(=O)c2cn(-c3ccccc3)nn2)CC1 | 8
COc1cccc2c1OCC(C(=O)N(C)CC1OCCc3ccccc31)C2 (stereo unspecified) | -13
O=C1NCC2(CCCN(C(=O)CCNC(=O)c3ccc(F)cc3)C2)O1 (stereo unspecified) | 3
Cc1noc(C)c1S(=O)(=O)Nc1ccc2c(c1)C(=O)N([C@H](C)CO)C[C@@H](C)[C@H](CN(C)Cc1ccc(C(=O)O)cc1)OCCCC[C@@H](C)O2 | 63
Nc1cc(-c2cccs2)nn1-c1ccc(F)cc1 | 111
Cc1cccc(CNC2=NCCNC23CCN(S(=O)(=O)c2cccs2)CC3)c1 | 10
COCCN1CCOCC12CCN(C(=O)c1cn(C)cn1)CC2 | 5
Clc1cc2c(c(CSc3ccccc3C3=NCCCN3)c1)OCOC2 | 38
Cn1cc(-c2nccc(CCC(F)(F)F)n2)cn1 | -6
CCOC(=O)N1c2ccc(C(C)C)cc2C=CC1C#N (stereo unspecified) | 204
Cc1cc(C(F)F)nn1CC(=O)NCCn1ncc(-c2ccncc2)c1-c1cccs1 | -66
COc1ncccc1-c1ccc(NC2CCCC2)nn1 | -33
COc1ccccc1OCC(=O)NCCc1csc(-c2ccc(F)cc2)n1 | 110
Cc1oc(-c2ccc(OC(C)C)cc2)nc1Cn1nnc(C(=O)Nc2cccc(Cl)c2C)c1C | -118*
CC(=O)N1CC2(C1)[C@H](c1ccc(-c3cccc(C#N)c3)cc1)[C@H](CO)N2CCC(F)(F)F | -24
C(=C\c1cc(/C=C/c2ccccc2)ncn1)/c1ccccc1 | 392
Cc1nc(CCNC(=O)C2CCN(S(=O)(=O)c3cccc(Cl)c3C)CC2)cs1 | 43
Cc1ccc(C(C)C)cc2c(C)ccc1-2 | 3
O=C(CN1CCOCC1)NC[C@@H]1N[C@@H](CO)[C@H]1c1ccc(-c2ccccc2)cc1 | -48
Cc1cc(C)c2oc(=O)cc(CN(C)CCC(O)c3ccccc3)c2c1 (stereo unspecified) | 2
COCCc1noc(-c2ccc(-c3cccc(C(C)OC)c3)nc2)n1 (stereo unspecified) | 7
CN1CCN(CCO)C(=O)C12CCN(C(=O)c1ccn[nH]1)CC2 | 7
CC(CCCC(C)(C)O)Nc1ccc(-c2nccn2C)nn1 (stereo unspecified) | 165
NC(=O)COc1cccc(CN2CCOC3(CNCCOC3)C2)c1 (stereo unspecified) | 5
